Assay outcomes from PubChem BioAssay.
nsP2pro inh: inhibitors of chikungunya virus nsP2 protease; Q8JUX6; FRET peptide cleavage, nsP2pro, fluorescence 1 h; Potency, µM (top dose mostly 24.9 µM), inactives show top-dose activity change, negative = inhibition, usual class: inhibitors; 31,000 tested, 1.1% active; AID 1964107; active means well fitted inhibition curve with a large enough effect; inconclusive means small, poorly fitted or top-dose-only effect; inactive means no such curve, though single readings can be large or run the other way; also: nearly all actives have a fitted effect of over 60% in size; a reference inhibitor and vehicle were the controls
Target sequence (Q8JUX6 whole entry, looked up): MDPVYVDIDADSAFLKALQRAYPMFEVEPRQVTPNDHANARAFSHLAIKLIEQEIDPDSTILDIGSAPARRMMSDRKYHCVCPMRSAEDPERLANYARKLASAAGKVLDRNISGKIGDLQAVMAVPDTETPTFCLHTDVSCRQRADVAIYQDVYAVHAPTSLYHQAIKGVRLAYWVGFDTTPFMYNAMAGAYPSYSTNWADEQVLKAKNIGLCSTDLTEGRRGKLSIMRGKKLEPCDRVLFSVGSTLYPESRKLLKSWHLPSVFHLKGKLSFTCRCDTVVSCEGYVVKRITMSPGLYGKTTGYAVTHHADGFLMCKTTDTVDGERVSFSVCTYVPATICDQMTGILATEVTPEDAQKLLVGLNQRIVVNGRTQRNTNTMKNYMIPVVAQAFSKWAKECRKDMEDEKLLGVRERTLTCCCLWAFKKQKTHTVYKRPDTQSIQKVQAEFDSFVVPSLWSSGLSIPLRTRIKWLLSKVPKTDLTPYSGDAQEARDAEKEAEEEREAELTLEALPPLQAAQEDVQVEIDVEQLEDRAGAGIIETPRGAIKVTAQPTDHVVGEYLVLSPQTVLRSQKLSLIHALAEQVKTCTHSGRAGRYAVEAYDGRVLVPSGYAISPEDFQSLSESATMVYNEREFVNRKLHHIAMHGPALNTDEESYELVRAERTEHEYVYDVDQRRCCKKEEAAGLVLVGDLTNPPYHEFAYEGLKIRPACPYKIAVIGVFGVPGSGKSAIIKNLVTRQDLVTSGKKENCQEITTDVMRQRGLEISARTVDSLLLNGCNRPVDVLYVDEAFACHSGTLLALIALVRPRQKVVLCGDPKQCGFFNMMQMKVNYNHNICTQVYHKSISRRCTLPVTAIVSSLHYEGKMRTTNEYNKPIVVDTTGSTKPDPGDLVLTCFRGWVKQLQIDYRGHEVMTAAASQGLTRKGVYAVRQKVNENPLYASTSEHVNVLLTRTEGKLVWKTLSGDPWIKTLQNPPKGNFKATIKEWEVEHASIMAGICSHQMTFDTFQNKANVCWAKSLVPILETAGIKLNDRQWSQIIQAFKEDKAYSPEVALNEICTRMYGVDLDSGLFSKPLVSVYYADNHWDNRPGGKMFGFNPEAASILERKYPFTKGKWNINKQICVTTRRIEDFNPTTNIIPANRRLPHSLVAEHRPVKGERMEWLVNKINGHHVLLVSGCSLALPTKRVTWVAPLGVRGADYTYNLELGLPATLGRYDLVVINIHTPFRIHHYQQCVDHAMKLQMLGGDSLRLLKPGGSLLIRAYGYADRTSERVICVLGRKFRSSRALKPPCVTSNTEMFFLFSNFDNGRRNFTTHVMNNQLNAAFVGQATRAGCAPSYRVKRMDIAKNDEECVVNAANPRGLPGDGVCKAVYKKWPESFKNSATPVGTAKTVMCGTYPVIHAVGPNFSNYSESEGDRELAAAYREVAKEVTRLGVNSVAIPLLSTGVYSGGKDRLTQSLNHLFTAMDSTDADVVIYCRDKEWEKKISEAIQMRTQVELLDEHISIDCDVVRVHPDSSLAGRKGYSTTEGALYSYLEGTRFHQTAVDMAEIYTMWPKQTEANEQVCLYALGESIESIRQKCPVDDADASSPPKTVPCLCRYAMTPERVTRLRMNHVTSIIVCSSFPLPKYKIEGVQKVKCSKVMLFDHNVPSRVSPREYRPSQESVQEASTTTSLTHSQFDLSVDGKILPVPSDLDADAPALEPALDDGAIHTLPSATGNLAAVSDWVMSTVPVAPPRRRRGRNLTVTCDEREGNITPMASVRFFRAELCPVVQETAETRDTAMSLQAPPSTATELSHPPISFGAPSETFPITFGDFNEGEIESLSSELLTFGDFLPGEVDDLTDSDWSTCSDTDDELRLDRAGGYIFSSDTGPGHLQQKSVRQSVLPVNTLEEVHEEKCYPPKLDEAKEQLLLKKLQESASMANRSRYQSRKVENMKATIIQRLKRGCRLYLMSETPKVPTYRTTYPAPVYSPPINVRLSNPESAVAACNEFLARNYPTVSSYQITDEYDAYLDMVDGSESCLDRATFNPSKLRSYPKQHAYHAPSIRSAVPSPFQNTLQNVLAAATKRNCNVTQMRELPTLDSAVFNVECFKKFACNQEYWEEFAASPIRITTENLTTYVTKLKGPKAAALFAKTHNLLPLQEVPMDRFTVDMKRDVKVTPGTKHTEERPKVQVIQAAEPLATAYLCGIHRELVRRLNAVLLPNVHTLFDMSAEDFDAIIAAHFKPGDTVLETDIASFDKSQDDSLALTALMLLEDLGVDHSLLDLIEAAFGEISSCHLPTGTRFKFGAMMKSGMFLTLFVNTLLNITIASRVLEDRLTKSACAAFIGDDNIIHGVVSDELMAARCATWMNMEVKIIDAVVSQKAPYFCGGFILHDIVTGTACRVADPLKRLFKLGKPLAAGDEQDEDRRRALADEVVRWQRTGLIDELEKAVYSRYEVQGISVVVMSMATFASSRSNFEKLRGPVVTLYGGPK
Starred values were filed as active, the others as inactive; i = inactive; ? = inconclusive; & = joins results of further samples; [ ] = another dose, or the depositor's remark. % is scaled to controls: 0 for no effect and ±100 for the full control effect; potency is read from the fitted curve at half-maximal effect. This is a subset; rates above refer to the full screens.

O=C1COc2ccc(S(=O)(=O)N3CCCn4nc(CO)cc4C3)cc2N1
- nsP2pro inh: -4%

Cc1ccc(Sc2c(C)nn(C(=O)COc3ccc(F)cc3)c2C)cc1
- nsP2pro inh: -26%

CC1CCN(S(=O)(=O)c2cc3c4c(c2)C(C)C(=O)N4CCC3)CC1 (stereo unspecified)
- nsP2pro inh: -11%

CCOc1ccc(S(=O)(=O)c2cn(Cc3ccccc3C)c3ccc(OC)cc3c2=O)cc1
- nsP2pro inh: -16%

CC1(C)CC[C@]2(C(=O)O[C@@H]3O[C@H](CO)[C@@H](O)[C@H](O)[C@H]3O)CC[C@]3(C)C(=CCC4[C@@]5(C)C[C@@H](O)[C@H](O)C(CO)(CO)C5CC[C@]43C)C2[C@@H]1O (stereo partly specified)
- nsP2pro inh: 1%[10 µM]

Nc1ccc(S(=O)(=O)Nc2ccc(Cl)nn2)cc1
- nsP2pro inh: 5%

Cc1ccc(NC(=O)CCSc2nc(-c3ccc4c(c3)OCO4)cc(C(F)(F)F)n2)c(C)c1
- nsP2pro inh: -11%

COc1cccc(-c2nc3cc(SC)ccc3cc2CN(C)Cc2ccno2)c1
- nsP2pro inh: 5%

O=C(C1CCCN1C(=O)Cc1ccc(F)cc1)N1CCC(N2CCOCC2=O)CC1 (stereo unspecified)
- nsP2pro inh: -2%

COC(=O)c1ccnc(NCc2ccc(O)c3ncccc23)c1
- nsP2pro inh: -20%

O=C(c1c(F)ccc(NS(=O)(=O)N2CC[C@@H](F)C2)c1F)c1c[nH]c2ncc(-c3cnc(C4CC4)nc3)cc12
- nsP2pro inh: 40%

COc1cccc(Nc2nc(C#N)nc(NC3CCCC3)n2)c1
- nsP2pro inh: i

CSc1cccc(Nc2cc(C(=O)NCCc3ccc(Cl)cc3)c3ccccc3n2)c1
- nsP2pro inh: 14%

CNC(=O)c1noc(CNC(=O)C(c2cccc(F)c2)N(C)C)n1 (stereo unspecified)
- nsP2pro inh: -3%

CC1(C)S[C@@H]2[C@H](NC(=O)C(c3ccccc3)S(=O)(=O)O)C(=O)N2[C@H]1C(=O)O (stereo partly specified)
- nsP2pro inh: -10%

In the list so far, these contain a Cl atom:
Nc1ccc(S(=O)(=O)Nc2ccc(Cl)nn2)cc1
- nsP2pro inh: 5%

CSc1cccc(Nc2cc(C(=O)NCCc3ccc(Cl)cc3)c3ccccc3n2)c1
- nsP2pro inh: 14%

Following part:
COc1cccc(NC(=O)CC2Oc3ccccc3NC2=O)c1 (stereo unspecified)
- nsP2pro inh: -12%

CS(=O)(=O)N(CC(=O)NCC1CC1)c1cc(C(F)(F)F)ccc1Cl
- nsP2pro inh: 3%

COc1ccc(S(=O)(=O)NCc2ccc(C(=O)NCc3ccccc3)cc2)cc1
- nsP2pro inh: -10%

CCOC(=O)c1c(-c2ccccc2)oc2ccc(OCc3cccc(Br)c3)cc12
- nsP2pro inh: -15%

CNC(=O)c1cccn2nccc12
- nsP2pro inh: -3%[39.2 µM]

CC1CCN(C(=O)Cn2cc(SCC(=O)NCc3ccccc3)c3ccccc32)CC1
- nsP2pro inh: -21%

CN(C(=O)c1c[nH]c2ccc(S(=O)(=O)Nc3cccc(C(F)(F)F)c3)cc2c1=O)C1CCCCC1
- nsP2pro inh: -19%

O=C(Cn1c(=O)sc2ccc(Cl)cc21)N1CCN(CCO)CC1
- nsP2pro inh: 0%

O=c1[nH]c2ccccc2n1CCCN1CCN(C(c2ccccc2)c2ccccc2)CC1
- nsP2pro inh: 1%

Cc1ccc(CNS(=O)(=O)c2cc3c(cc2Cl)NC(=O)CO3)o1
- nsP2pro inh: ?

Cc1ccc(C)c(CSC2=NC(C)(C)Nc3ccccc32)c1
- nsP2pro inh: -12%

O=C(Nc1ccnn1C1CCN(Cc2ccc(-c3ccccc3)cc2)CC1)C1CC1
- nsP2pro inh: i

COc1ccc(C(=O)N2CCCC(c3nc(-c4ccccc4)no3)CCNC(=O)CC2)cn1 (stereo unspecified)
- nsP2pro inh: 5%

Cc1ccc(Cn2c(C(=O)O)c(CNCc3cccs3)c3ccc(C)cc32)cc1
- nsP2pro inh: 0%

Nc1ccc2c(c1)C(=O)NS2(=O)=O
- nsP2pro inh: i

O=C1CCCC2=C1C(c1[nH]ncc1Cl)NC(=NCCc1cccnc1)N2 (stereo unspecified)
- nsP2pro inh: -7%

COc1ccccc1-c1noc(-c2ccc(NCCc3ccccc3)c([N+](=O)[O-])c2)n1
- nsP2pro inh: -27%

CC1=C[C@@H](CNC2CCOCC2)[C@H](C(C)C)C[C@H]1Cc1nc2ccc(F)cc2[nH]1
- nsP2pro inh: 3%[39.2 µM]

Cc1cc(NCc2ccccc2Cl)n2cnnc2n1
- nsP2pro inh: -24%

CN1CCN(c2ncnc3sc4c(c23)CCNC4)CC1
- nsP2pro inh: i

Cc1ccc(CCNC(=O)c2ccc3c(c2)N(Cc2cccc(C)c2)C(=O)c2ccccc2S3(=O)=O)cc1
- nsP2pro inh: -14%

COc1cccc2sc(N(Cc3cccnc3)C(=O)C3COc4ccccc4O3)nc12 (stereo unspecified)
- nsP2pro inh: -16%

CC(=O)c1cccc(NC(=O)CC(c2ccc(C)cc2)N2Cc3ccccc3C2=O)c1 (stereo unspecified)
- nsP2pro inh: -18%

COc1ccc(C[C@H](NC(=O)[C@@H]2C[C@H](NC(=O)Nc3ccc(F)cc3F)CN2C(=O)CC(C)(C)C)C(N)=O)cc1
- nsP2pro inh: 3%

Cc1cccc(-c2noc(CCC(=O)N3CCC(C)(c4noc(C)n4)CC3)n2)c1
- nsP2pro inh: -6%

COc1cc(NS(=O)(=O)c2ccc(NC(=O)c3cccc(F)c3)cc2)nc(OC)n1
- nsP2pro inh: -16%

CC(=O)NCC1CN(C(=O)NCc2ccc(OC(F)(F)F)cc2)CC12CCCCC2 (stereo unspecified)
- nsP2pro inh: -4%

Cc1ccc(NC(=O)Cn2nc(-c3ccncc3)ccc2=O)cc1Cl
- nsP2pro inh: -22%

FC(F)(F)c1cc(-c2ccc(CNc3nc(-c4ccccc4C(F)(F)F)nc4ccccc34)cc2)cc(C(F)(F)F)c1
- nsP2pro inh: 0%

COc1ccc(CNC(=O)C(=O)Nc2ccccc2OC)cc1
- nsP2pro inh: -18%

COc1ccc(F)c(F)c1CN1CCC2(CCNCC2)C1
- nsP2pro inh: 13%

Oc1ccc(Nc2nc(-c3ccc(Cl)cc3)cs2)cc1
- nsP2pro inh: ?

CCC(C)/C=C(C)/C=C/C1=CC2=C(Cl)C(=O)C(C)(OC(C)=O)C(=O)C2=CN1C(CC(=O)O)C(=O)O (stereo unspecified)
- nsP2pro inh: -13%[10 µM]

C/C=C(/C)C(=O)O[C@H]1C[C@]2(C)O[C@@H]2[C@@H](OC(C)=O)[C@@]2(C)CC[C@@](O)(C(C)C)[C@H]12
- nsP2pro inh: -7%

COc1ccc(C(=O)Nc2cnc(-c3ccc(Cl)cc3)nc2)cc1
- nsP2pro inh: -1%

CC(=O)O[C@@H]1C(O)C[C@@]2(C)C(CC[C@@H](C)C23Cc2c(O)cc4c(c2O3)CNC4=O)C1(C)C (stereo partly specified)
- nsP2pro inh: -4%[10 µM]

COc1ccc(C(=O)N(Cc2ccccc2)Cc2cccs2)c(O)c1
- nsP2pro inh: -8%

Cc1ccsc1CN1CCc2[nH]nc(C(=O)N(C)C)c2C1
- nsP2pro inh: 2%

c1ccc2[nH]ccc2c1
- nsP2pro inh: -5%

CN1CCCN(CC(=O)N2CCCC(c3ccc(C(=O)O)cc3)C2)CC1 (stereo unspecified)
- nsP2pro inh: i

CC1C2=CC(=O)OC2(O)CC2C1C(OC(=O)c1ccccc1)C(OC(=O)c1ccccc1)C1(O)C2(C)CCC(O)C1(C)C(=O)O (stereo unspecified)
- nsP2pro inh: 2.3µM*

CCOC(=O)c1ccc(CNC(=O)c2cn(CCCc3ccccc3)nn2)o1
- nsP2pro inh: -31%

Nc1ccc(S(=O)(=O)Nc2ccnn2-c2ccccc2)cc1
- nsP2pro inh: -2%[10 µM]

N#Cc1nc(Nc2ccc(Br)cc2)nc(NC2CCCC2)n1
- nsP2pro inh: -22%

CNC(=O)c1cc(C2CC2)nc2onc(C3CCCN3C(=O)NC(C)c3ccccc3)c12 (stereo unspecified)
- nsP2pro inh: i

Cc1nc(N2CCOCC2)c2nc(-c3ccccc3)n(CCN(C)C)c2n1
- nsP2pro inh: 5%

CS(=O)(=O)NC1CCN(c2cc(C3CC(N)C3)nc(N)n2)CC1 (stereo unspecified)
- nsP2pro inh: i

CC(=O)c1cc(C(=O)N[C@@H](C)Cn2ccc(-c3ccc(C#N)c(Cl)c3)n2)[nH]n1
- nsP2pro inh: 27%

Cc1ccccc1N1CCN(S(=O)(=O)c2nnc(NC(=O)c3ccc(Cl)cc3)s2)CC1
- nsP2pro inh: -14%

CNC(=O)C1(N2CCC[C@H]2C(=O)N2CC[C@@H](O)C2)CCCCC1
- nsP2pro inh: -6%[39.2 µM]

CC(C)(C)OC(=O)N1CCN(c2ccc(NCc3cncc(-c4ccc(C#N)cc4)c3)cc2)CC1
- nsP2pro inh: i

CC[C@@]1(O)C(=O)OCc2c1cc1n(c2=O)Cc2cc3cc(O)ccc3nc2-1
- nsP2pro inh: -4%

O=C(CSc1nc2ccccc2[nH]1)N1CCOCC1
- nsP2pro inh: -7%

COc1ccc2nccc(C(=O)CC[C@@H]3CCN(CC#Cc4cc(F)cc(F)c4F)C[C@@H]3C(=O)O)c2c1
- nsP2pro inh: -5%

Cc1nc(C2CC(O)C2)cc(N2CCC(c3nncn3C)CC2)n1 (stereo unspecified)
- nsP2pro inh: i

C[C@@H](N)[C@@H](O)c1ccccc1
- nsP2pro inh: 6%

O=C(Nc1nonc1-c1ccc(Cl)cc1)c1ccccc1F
- nsP2pro inh: -13%

Cc1cccc(CNc2ncnc3ccc(-c4ccc5c(ccn5C)c4)cc23)c1
- nsP2pro inh: 0%

O=C1NC(=NCc2cccs2)S/C1=C/c1ccc2ncccc2c1
- nsP2pro inh: 3%

COc1ccc(NC(=O)c2sc3nc4n(c(=O)c3c2C)CCC4)cc1Cl
- nsP2pro inh: -17%

Cn1cc(C2=C(c3coc4ccccc34)C(=O)NC2=O)c2cc(Br)ccc21
- nsP2pro inh: 85%[activator]

CCC(=O)N1CCc2sc(C(=O)N3CCN(c4cccc(Cl)c4)CC3)cc2C1
- nsP2pro inh: i

Cc1cc(CS(=O)(=O)c2ccccc2)cc(OCc2ccc(CN3CCC[C@H]3CO)cc2)c1
- nsP2pro inh: 1%

Cn1cc(S(=O)(=O)N2CCCCC2)cc1C(=O)N1CCN(c2ccc(F)cc2)CC1
- nsP2pro inh: -25%

CC(=O)N=c1sc(S(N)(=O)=O)nn1C
- nsP2pro inh: -23%&-7%&3%

O=C(NC[C@H]1OC[C@@H](NCc2ncc[nH]2)[C@@H]1O)c1cccs1
- nsP2pro inh: i

COc1ccc(-n2c(=O)c3c(c4cc(OC)ccc4n3C)n(CC(=O)NCC3CCCO3)c2=O)cc1 (stereo unspecified)
- nsP2pro inh: -14%

COC(=O)C1(C)CCC2(C(=O)O)CCC3(C)C(=CCC4C5(C)CC(O)C(OC6OCC(O)C(O)C6O)C(C)(CO)C5CCC43C)C2C1 (stereo unspecified)
- nsP2pro inh: -9%[10 µM]

O=C(CSc1nccn1Cc1ccc2c(c1)OCO2)Nc1ccccc1F
- nsP2pro inh: -17%

Cc1cc(=O)oc2cc(OCC(=O)Nc3ccc(O)c(C(=O)O)c3)ccc12
- nsP2pro inh: 22%

C=CC1(C)CC(O)C2(CCC3C(C)(C(=O)O)CCCC3(C)C2=O)C1 (stereo unspecified)
- nsP2pro inh: -9%

CCS(=O)(=O)N1CC(F)(F)C[C@H]1c1nc(-c2cccnc2)no1
- nsP2pro inh: 4%

CCCc1nn(-c2cccc(C)c2)c(=O)n1CC(=O)NCc1ccc(C)o1
- nsP2pro inh: ?

O[C@@H]1CO[C@H]2[C@@H]1OC[C@@H]2n1nnnc1SCc1ccco1
- nsP2pro inh: 11µM*

CSc1nn(CC(=O)Nc2ccc(C)cc2C)c(N)c1S(=O)(=O)c1ccc(Cl)cc1
- nsP2pro inh: -13%

CC(C)CN(Cc1cccnc1)C1CN(S(=O)(=O)Cc2ccccc2F)C1
- nsP2pro inh: i

CCC(=O)N1CCc2cc(S(=O)(=O)NCCC(=O)NCc3ccc(OC)cc3)ccc21
- nsP2pro inh: -4%

COc1ccc(NC(=O)C2CCCN(S(=O)(=O)c3ccc4c(c3)CCCN4C(C)=O)C2)cc1 (stereo unspecified)
- nsP2pro inh: -9%

Cc1c(C(=O)N[C@H](c2cnn(C)c2)C2CC(O)C2)sc2nc[nH]c(=O)c12 (stereo partly specified)
- nsP2pro inh: i

Structural class, those above with an NH in an aromatic ring.
O=C(c1c(F)ccc(NS(=O)(=O)N2CC[C@@H](F)C2)c1F)c1c[nH]c2ncc(-c3cnc(C4CC4)nc3)cc12
- nsP2pro inh: 40%

CN(C(=O)c1c[nH]c2ccc(S(=O)(=O)Nc3cccc(C(F)(F)F)c3)cc2c1=O)C1CCCCC1
- nsP2pro inh: -19%

O=c1[nH]c2ccccc2n1CCCN1CCN(C(c2ccccc2)c2ccccc2)CC1
- nsP2pro inh: 1%

O=C1CCCC2=C1C(c1[nH]ncc1Cl)NC(=NCCc1cccnc1)N2 (stereo unspecified)
- nsP2pro inh: -7%

CC1=C[C@@H](CNC2CCOCC2)[C@H](C(C)C)C[C@H]1Cc1nc2ccc(F)cc2[nH]1
- nsP2pro inh: 3%[39.2 µM]

Cc1ccsc1CN1CCc2[nH]nc(C(=O)N(C)C)c2C1
- nsP2pro inh: 2%

c1ccc2[nH]ccc2c1
- nsP2pro inh: -5%

CC(=O)c1cc(C(=O)N[C@@H](C)Cn2ccc(-c3ccc(C#N)c(Cl)c3)n2)[nH]n1
- nsP2pro inh: 27%

O=C(CSc1nc2ccccc2[nH]1)N1CCOCC1
- nsP2pro inh: -7%

O=C(NC[C@H]1OC[C@@H](NCc2ncc[nH]2)[C@@H]1O)c1cccs1
- nsP2pro inh: i

Cc1c(C(=O)N[C@H](c2cnn(C)c2)C2CC(O)C2)sc2nc[nH]c(=O)c12 (stereo partly specified)
- nsP2pro inh: i
